Vaccinia mCherry: vaccinia inhibition (mCherry reporter) | Vaccinia virus mCherry reporter infection, fluorescence; about a quarter of the inactives have no number | Potency, µM (highest dose often 36.5 µM), without a hit: at the highest dose activity change, negative = inhibition, usual class: inhibitors | hit rate 0.63% among 310,000 | AID 720579; active = well fitted inhibition curve with a large enough effect; inconclusive = small, poorly fitted or top-dose-only effect; inactive = no such curve, though single readings can be large or run the other way; tested in A549 cells; note: nearly all actives have a fitted effect of over 35% in size; inactives centre near -10
Vaccinia Venus: vaccinia inhibition (Venus reporter). Vaccinia virus Venus reporter expression, fluorescence. Potency, µM (series often up to 36.5 µM), for the others: at the highest dose activity change, negative = inhibition, most hits filed as inhibitors. hit rate 0.46% among 330,000. AID 720580; active means well fitted inhibition curve with a large enough effect; inconclusive means small, poorly fitted or top-dose-only effect; inactive means no such curve, though single readings can be large or run the other way; tested in A549 cells; note: nearly all actives have a fitted effect of over 30% in size; inactives centre near -10
An asterisk follows results filed as active; i = inactive; ? = inconclusive; nt = no result given; & = joins results of further samples; [ ] = another dose, or the depositor's remark. % is set by controls: 0 for no effect and ±100 for the full control effect; potency is the fitted concentration of half-maximal effect. This is a random part of the collection; any-hit rate near 0.82%.

Each structure is followed by: Vaccinia mCherry, Vaccinia Venus
- CCOC(=O)c1ccc(NC(=O)CN2C(=O)CCC2=O)cc1
 : nt, -24%
- O=C(NCc1ccc(F)cc1)C(=O)NCC(c1cccs1)S(=O)(=O)c1cccs1 (configuration not stated)
 : -14%, 3%
- O=C(COC(=O)c1oc2ccccc2c1COc1ccccc1)NCCN1C(=O)CSC1=O
 : -9%, -5%
- CCN(c1ccc(OC)cc1)S(=O)(=O)N1CCCC(C(=O)NCc2ccc(OC(C)C)cc2)C1 (configuration not stated)
 : -19%, ?
- Cc1ccc(C)c(N2CCN(S(=O)(=O)c3ccc4c(c3)OCCO4)CC2)c1
 : nt, -4%
- CSc1ccccc1C(=O)NC1CCSc2ccccc21 (configuration not stated)
 : -5%, -9%
- CC1(C)Cc2c(C#N)c(SCCC#N)nc(N3CCOCC3)c2CO1
 : -13%, -3%
- Cc1ccc(CCNC(=O)c2sc3ncccc3c2-n2cccc2)cc1
 : 2%, -16%
- CC(=O)Nc1ccc(-c2nnc(SCC(=O)NCc3ccco3)n2C)cc1
 : -11%&-6%, -11%&-8%
- CC(C)(C)OC(=O)[C@H](Cc1ccccc1)NC(=O)c1[nH]cnc1C(=O)N[C@@H](Cc1ccccc1)C(=O)OCc1ccccc1
 : -3%, -24%
- O=C(COC(=O)/C=C/c1c(F)cccc1Cl)NCC1CCCO1 (configuration not stated)
 : -3%, -24%
- Cc1ccc(Cn2c(C(=O)O)c(CNC3CCCC3)c3ccc(C)cc32)cc1
 : 7%, -4%
- CCOC(=O)COc1ccc2ccccc2c1/C=C/[N+](=O)[O-]
 : -18%, -8%
- CC1CN(C(C)C)C(=S)NC1=O (configuration not stated)
 : -9%, -9%
- CC(CNC(=O)c1ccc(CSc2nc3ccncc3n2Cc2ccc(F)cc2)cc1)c1ccccc1 (configuration not stated)
 : ?, ?
- Cc1ccc(C)n1-c1cccc(NC(=O)c2ccccc2)c1
 : ?, -16%
- C[C@H](CO)N1C[C@H](C)[C@@H](CN(C)S(=O)(=O)c2ccc3ccccc3c2)OCc2cnnn2CCCC1=O
 : -1%, -14%
- COC(=O)C(C(=O)Nc1ccccc1C)C1CCCC1 (configuration not stated)
 : i[1.46 µM], -13%
- COc1ccc(S(=O)(=O)c2nnn(-c3ccccc3F)c2C)cc1
 : 0%, 3%
- COc1c2ccc(C(=O)NCCCCc3ccccc3)cc2nn1C
 : -7%, 3%
- O=C(Nc1cc(C(F)(F)F)ccc1N1CCOCC1)c1c(F)c(F)c(F)c(F)c1F
 : -6%, -8%
- Cc1cc(=O)oc2c3c(cc(OCC(=O)NCc4ccccn4)c12)OC(C)(C)CC3
 : 30%[activator], 1%
- CN(C)Cc1nc2c(c(=O)[nH]1)C(C)(C)Cc1ccccc1-2
 : -1%[1.46 µM], -18%
- COc1ccc(C2=NS(=O)(=O)N(C)C(C(=O)N3CCOCC3)=C2)cc1OC
 : i, -1%
- COc1cccc(NC(=O)CNC(=O)c2ccc(OC)c(OC)c2)c1
 : i, ?
- O=C(Nc1cc(Cl)ccc1N1CCOCC1)c1cc2ccccc2o1
 : 12%, 1%
- CC1(C)CC(=O)CC(=Nc2ccc3[nH]c(=O)[nH]c3c2)C1
 : i, -8%
- COc1ccc(C(=O)Nc2ccc(NC(=O)c3ccccc3)cc2)cc1S(=O)(=O)N1CCOCC1
 : -12%, -8%
- O=C(Cn1cc(SCc2ccc(F)cc2)c2ccccc21)N1CCOCC1
 : i, -2%
- CC(C)CC(=O)NC(=S)Nc1ccc(N2CCN(C(=O)c3cccs3)CC2)cc1
 : i, -16%
- O=C(O)c1ccccc1N=Nc1ccc(O)cc1
 : i, 1%
- CCc1cccc(NC(=O)Cn2c(=O)n(CC3CCC(C(=O)NCCc4ccccc4)CC3)c(=O)c3ccccc32)c1 (configuration not stated)
 : -1%, -3%
- O=C1c2ccccc2NC(c2ccc(O)cc2)N1Cc1ccco1 (configuration not stated)
 : 40%[activator], -6%
- CC(=O)NNc1ncnc2c1cnn2-c1ccc(C)c(C)c1
 : i, 1%
- O=C(Cn1c(C(F)(F)F)nc2ccccc21)c1ccc(Cl)cc1
 : i, -9%
- O=C(Nc1nnc([C@H]2C[C@H](O)[C@@H](CO)O2)s1)c1cccc(Oc2ccccc2)c1
 : 12%, 4%
- Cc1cccc(N(C)C(=O)C2CCN(S(=O)(=O)c3cccc4nonc34)CC2)c1
 : 3%, -1%
- C=C1CCC2[C@](C)(CO)[C@H](O)CC[C@@]2(C)[C@@H]1C/C=C1\C(=O)OC[C@H]1O (some centres not stated)
 : -17%, -9%
- Cc1ccccc1CN1CCN(CC(=O)NCc2ccccc2Cl)C1=O
 : -14%, -17%
- CCOC(=O)c1[nH]c(C)c(CCC(=O)Nc2cc(C)ccc2OC)c1C
 : -5%, -8%

Complete entries from above.
`O=C(Cn1c(C(F)(F)F)nc2ccccc21)c1ccc(Cl)cc1` is entered as Vaccinia mCherry: i; Vaccinia Venus: -9%
`CC(=O)NNc1ncnc2c1cnn2-c1ccc(C)c(C)c1` is entered as Vaccinia mCherry: i; Vaccinia Venus: 1%

(listing goes on)
Each structure is followed by: Vaccinia mCherry, Vaccinia Venus
- CCc1ccccc1NC(=O)CCC(=O)N1CCSc2ccccc21
 : 0%, 2%
- CCOC(=O)COc1cccc2c(=O)n(CC(=O)NCCc3ccccc3)ccc12
 : i, 0%
- CCOC(=O)C1CCN(c2cc(C)nc3ccc(OC)cc23)CC1
 : i, -11%
- CC(C)CC(=O)N1CC(=O)Nc2ccc(F)cc2C1c1ccccc1 (configuration not stated)
 : -6%, 3%
- O=C(CSc1nnc2scc(-c3ccc(Cl)cc3)n12)NCc1ccco1
 : ?, -8%
- CCCCn1c(N)c(N(CC(C)C)C(=O)c2ccc(N(C)S(=O)(=O)c3ccc(C)cc3)cc2)c(=O)[nH]c1=O
 : i, -4%
- O=C(COC(=O)c1ccccc1C(=O)c1ccccc1)NCCc1ccccc1
 : -8%, -1%
- COc1ccc(S(=O)(=O)N2CCOCC2)cc1NC(=O)Cc1ccc2c(c1)OCCO2
 : i, -1%
- Cc1ccc(C(=O)Nc2cc([N+](=O)[O-])ccc2F)s1
 : -14%, -14%
- Cc1ccc(N=C2C(=O)Nc3ccccc32)cc1
 : -5%, -12%
- O=CNc1ccc2c3c(cccc13)-c1ccccc1-2
 : -26%, -26%
- CN(C)c1ccc(-c2ccc3ccccc3n2)cc1
 : -13%, -6%
- Cc1ccc(NC(=O)Cn2cc(S(=O)(=O)NC(C)C)c(S(=O)(=O)NC(C)C)c2)cc1Cl
 : ?, ?
- O=C(c1ccccn1)N(Cc1cc2ccccc2[nH]c1=O)C1CCCCC1
 : nt, -5%
- O=c1[nH]cc(S(=O)(=O)Nc2ccc3c(c2)OCO3)c(=O)[nH]1
 : i, -4%
- Cc1cccc2c(N=Nc3ccc(S(=O)(=O)Nc4ccc(Cl)cc4)cc3[N+](=O)[O-])c(O)[nH]c12
 : -14%, -14%
- O=C(Nc1ccc(OCC(F)(F)C(F)F)c(C(F)(F)F)c1)c1ccccc1
 : -25%, ?
- CCCCc1ccc(/C=C(\C#N)C(N)=S)s1
 : -20%, -11%
- CN1CCN(CC(O)COc2ccc(Cl)cc2)CC1 (configuration not stated)
 : -11%, -5%
- CC1Cc2nc(SCC(=O)NCCc3ccccc3)n(C)c(=O)c2S1 (configuration not stated)
 : -5%, -11%
- O=C(Nc1ccccc1)C1CC2CCCC(C1)C2=O (configuration not stated)
 : 4%, 32%[activator]
- CCOC(=O)N(C)c1c(CC)nc2c(OCc3ccc(S(C)(=O)=O)cc3)cccn12
 : 35%[activator], -1%
- O=C(NC1CCN(C(=O)Nc2ccccc2Cl)CC1)c1ccccc1
 : -13%, -10%
- COc1ccccc1N1CCN(S(=O)(=O)c2cn(C)nc2C)CC1
 : -10%, -5%
- OC1COC(c2ccccc2)OC1C(O)C1OC(c2ccccc2)OCC1O (configuration not stated)
 : i, 2%
- COC(=O)c1cc(NC(C)=O)ccc1N1CCOCC1
 : i, -2%
- CN(C)c1cc[n+](CC(=O)N2CCCc3ccccc32)cc1
 : i, -3%
- COc1cccc(Cn2cnc(-c3ccccc3OC)c2C2CC2)c1
 : -11%, -2%
- CCNC(=O)C1(C)CCN(C(=O)c2ccc(C(F)(F)F)cc2)C1 (configuration not stated)
 : i, -2%
- O=C(NCC1CCCO1)c1onc(CSc2ccccc2)c1C(=O)O (configuration not stated)
 : -11%, -5%
- CCCNC(=O)Cn1sc2nc(C)cc(C)c2c1=O
 : -2%, -6%
- Cn1cc(C(=O)NCCc2ccccc2)c(=O)c2cc(S(=O)(=O)N3CCCCCC3)ccc21
 : -5%, -26%
- O=C(NC1(Cc2ccccc2)CCN(Cc2ccc(-c3ccccc3)cc2)C1=O)c1ccccc1 (configuration not stated)
 : 11µM*, ?
- CCOc1ccc(CCNC(=O)CCNC(=O)c2ccco2)cc1OCC
 : -12%, -6%
- CC(=O)c1cc(-c2ccccc2)n(CC(=O)NC(C)(C)C)c1C
 : 1%, -11%
- O=C(CCn1cccc1)Nc1cccc(F)c1
 : -16%, -6%
- Cc1noc(C)c1COc1ccc(CC(=O)NC2CCCCCC2)cc1
 : i, -5%
- N#C/C(=N\Nc1ccccc1)C(N)=S
 : -16%, -18%
- O=C(Nc1cccc(OC(F)(F)F)c1)c1cccc2c(-c3cccnc3)coc12
 : 18%, 13%
- Cn1c(COc2ccc(F)cc2)nnc1SCC(=O)NC1CC1
 : -19%, -11%
- Cc1cccc(CCNC(=O)c2ccc3c(c2)nc2n3CCOC2)c1
 : -10%[7.34 µM], -11%[7.34 µM]
- COc1ccc(C(=O)NCCNC(=O)c2cnccn2)cc1OC
 : -10%, 4%
- CCN(CC)C(=O)CSc1ncnc2c1cnn2Cc1ccccc1
 : nt, ?
- CCc1cccc(NC(=O)Cn2nc(-c3cc(C)ccc3C)ccc2=O)c1
 : -6%, -4%
- Cc1noc(C)c1CSCC(=O)N(C)CC(=O)Nc1ccc(Cl)c(Cl)c1
 : -15%, -19%
- CC(C)(C)OC(=O)C[C@@H]1C/C=C\C[C@H](CC(=O)N[C@H](CO)Cc2ccccc2)C(=O)N[C@H](Cc2ccccc2)COC1=O
 : -11%, -24%
- CCC(C)c1ccc(NC(=O)C2CCN(c3ccc(C(F)(F)F)cn3)CC2)cc1 (configuration not stated)
 : -5%, -29%
- CCCCNC(=O)C1(C)CCCCN1Cc1ccc2ccccc2c1 (configuration not stated)
 : 6%, 5%
- O=c1c(Br)c(N2CCCC2)cnn1-c1ccccc1
 : -21%, -14%
- O=C(COC(=O)Cc1ccccc1F)Nc1ccc(SC(F)F)cc1
 : i, -10%

Other structures follow.
Each structure is followed by: Vaccinia mCherry, Vaccinia Venus
- Cc1cc(=O)oc2c(C)c(OC(C)C(=O)NCC3CCC(C(=O)O)CC3)ccc12 (configuration not stated)
 : -4%, 0%
- O=C(N/N=C/c1c[nH]c2ccc(Br)cc12)c1ccn(Cc2ccc(Cl)cc2)n1
 : ?, -27%
- Cc1ccc(S(=O)(=O)N2CC3=C(C2)C2CC2(C)C3)cc1 (configuration not stated)
 : -3%, -4%
- O=C(NC1CCCC1)C(c1ccccc1)N(C(=O)c1ccno1)c1ccccc1 (configuration not stated)
 : -4%, -4%
- COC(=O)c1ccccc1NC(=O)COC(=O)c1ccco1
 : -12%, -9%
- COc1cc(N2Cc3ccccc3C2)ccc1C=O
 : -1%, -7%
- O=C1C(NS(=O)(=O)c2cccs2)=C(N2CCN(c3cccc(Cl)c3)CC2)C(=O)c2ccccc21
 : nt, -1%
- O=C(CS(=O)CC(=O)Nc1ccccc1-c1ccccc1)Nc1ccc(F)cc1 (configuration not stated)
 : i, 6%
- CCN1C(=O)c2ccccc2Sc2ccc(NC(=O)Nc3ccccc3OC)cc21
 : ?, -24%
- CC(=O)Nc1ccc(S(=O)(=O)N2CCN(C3CCCCCCC3)CC2)cc1
 : ?, -7%
- CCOc1ccc(OCCOCCOc2ccccc2Cl)cc1
 : i, -9%
- COc1ccc(Cn2c(CCC(=O)Nc3ccc(OC)c(Cl)c3)nc3cccnc32)cc1
 : -23%, -25%
- N=c1c(C(=O)NC2CCCCC2)cc2c(=O)n3ccccc3nc2n1CCc1ccccc1
 : -9%, 2%
- COc1ccc(C2=Nc3cc(C)ccc3OC2)cc1
 : -26%, ?
- COC(=O)c1ccc(OCC2c3cc(OC)c(OC)cc3CCN2C(=O)Cc2ccc(OC)c(OC)c2)cc1 (configuration not stated)
 : 3%, -5%
- COc1cccc(-c2ccc3c(c2)S(=O)(=O)c2cccc(C(=O)O)c2C3=O)c1OC
 : -13%, -4%
- CCOC(=O)C1=CN(CC)S(=O)(=O)NC1c1ccc(C(F)(F)F)cc1 (configuration not stated)
 : ?, -14%
- Cc1ccc(/C=N/NC(=O)CSc2nc3nc(C)cc(C)n3n2)cc1
 : -1%, -6%
- O=C(Nc1ccccc1)C1=C[C@H](c2ccccc2)C[C@H](OCc2ccc(CO)cc2)O1
 : 8%, 6%
- Cn1cnc(S(=O)(=O)N2CCCC(C(=O)NCc3ccc(Cl)cc3)C2)c1 (configuration not stated)
 : -19%, -15%
- CC(c1ccccc1)c1nnc(N)s1 (configuration not stated)
 : i, 1%
- Cc1cc(=O)[nH]c(SCC(=O)N2CCN(c3ccccc3)CC2)n1
 : -11%, -6%
- Cc1ccc(C(=O)N/C(=C/c2ccc(Cl)cc2)C(=O)NCC2CCCO2)cc1 (configuration not stated)
 : -20%, -4%

Assay outcomes deposited in PubChem by National Center for Advancing Translational Sciences (NCATS).
